Vaccinia mCherry: qHTS for Stage-Specific Inhibitors of Vaccinia Orthopoxvirus: mCherry Reporter Primary qHTS; Vaccinia virus mCherry reporter infection, fluorescence; about a quarter of the inactives have no number; Potency, µM (top dose mostly 36.5 µM), inactives show at the highest dose activity change, negative = inhibition, usual class: inhibitors; actives 0.63% (n = 310,000); AID 720579, 2013; active = well fitted inhibition curve with a large enough effect; inconclusive = small, poorly fitted or top-dose-only effect; inactive = no such curve, though single readings can be large or run the other way; tested in A549 cells; further: nearly all actives have a fitted effect of over 35% in size; inactives centre near -10
VACV Venus inh: qHTS for Stage-Specific Inhibitors of Vaccinia Orthopoxvirus: Venus Reporter Primary qHTS; Vaccinia virus Venus reporter expression, fluorescence; Potency, µM (series often up to 36.5 µM), for the others: at the highest dose activity change, negative = inhibition, most hits filed as inhibitors; actives 0.46% (n = 330,000); active means well fitted inhibition curve with a large enough effect; inconclusive means small, poorly fitted or top-dose-only effect; inactive means no such curve, though single readings can be large or run the other way; tested in A549 cells; further: nearly all actives have a fitted effect of over 30% in size; inactives centre near -10
* hit, by the source's call; i = inactive; ? = inconclusive; nt = not tested or not shown; & = joins results of further samples. On the % scale 0 is the no-effect control and ±100 the full control effect; potency means the concentration at half of the fitted maximal effect. Rows were taken by chance, and some 0.87% of all compounds hit somewhere here.

Order of results – VACV Venus inh, Vaccinia mCherry
Cc1cccc(N2CCN(C(=O)c3ccc4c(c3)N(Cc3cccc(Cl)c3)C(=O)c3ccccc3S4(=O)=O)CC2)c1C
  0%, -9%
N#Cc1c(SCC(=O)N2CCCCC2)nsc1SCC(=O)N1CCCCC1
  -8%, -10%
N#CCCn1c2ccccc2c2nc3ccccc3nc21
  -3%, nt
Cc1ccc(CNC(=O)CSc2nc(C)cc(C)c2C#N)cc1
  -14%, -20%
COc1ccc(OC)c(S(=O)(=O)N(C)CC(=O)N2CCc3ccccc3C2)c1
  7%, nt
O=C(N/N=C/c1ccc2c(c1)OCO2)C(=O)Nc1ccccc1
  -19%, -12%
COc1ccccc1OCC(=O)Nc1ccc(S(=O)(=O)Nc2cc(C)nc(C)n2)cc1
  -18%, nt
Cn1cc(CN(C(=O)Nc2ccccc2)C2CCCCC2)c2ccccc21
  -20%, ?
CC1CCC(C(O)(C(=O)O)C2CCCCC2)CC1C (stereo not given)
  -3%, i
CCC(=O)N1CCc2cc(S(=O)(=O)CCC(=O)N3CCN(c4ccccc4Cl)CC3)ccc21
  -4%, -10%
CCOc1ccc(CN2C(=O)c3ccccc3C2C(=O)NCC2CCCO2)cc1 (stereo not given)
  2%, -17%
O=C(Nc1ccc2c(c1)OCCO2)C1c2ccccc2OCC(=O)N1Cc1ccco1 (stereo not given)
  0%, 0%
COc1ccc(/C=N/NC(=O)c2[nH]c(C)c(C(=O)N/N=C/c3ccc(OC)cc3)c2C)cc1
  -12%, i
CCCCn1c(NC(=O)c2ccco2)c(C(=O)OCC)c2nc3ccccc3nc21
  12%, -13%
CCc1ccc(-n2nc(C)c3c(C(=O)Nc4cc(C)c(Cl)cc4OC)cc(C)nc32)cc1
  -11%, -6%

Order of results – VACV Venus inh, Vaccinia mCherry
CC(C)CCNC(=O)CN(C(=O)CCC(=O)Nc1ccccn1)c1ccc(F)c(Cl)c1
  -20%, i
COc1cc(OC)nc(Oc2cccc(Cl)c2C)n1
  0%, i
Cn1c(SCC(=O)c2c(N)n(C)c(=O)n(C)c2=O)nnc1-c1ccccc1F
  2%, 1%
Cc1ccc(-c2nnc3ccc(SCC(=O)Nc4cc(C)on4)nn23)cc1
  -12%, i
Cn1nc(C(=O)N2CCN(c3ccc(F)cc3)CC2)c2c1-c1ccccc1SC2
  -3%, 3%
CCc1nn(CC(=O)NCc2cccnc2)c(=O)c2cc3occc3n12
  -20%, -12%
O=C(NCC(=O)N1CCCCCCC1)c1ccccc1Br
  -14%, -17%
C=CCOc1ccc(CNn2c(C)n[nH]c2=S)cc1OC
  -5%, nt
CCOC(=O)[C@@H]1[C@H]2COc3ccc(Br)cc3[C@@H]2N2C(=O)N(c3cccc(F)c3)C(=O)[C@]12C
  -22%, i
CCOC(=O)c1c(C)oc2nc(C)nc(NCC3CCN(Cc4ccc(C)cc4)CC3)c12
  -17%, i
Cc1cccc(C)c1NC(=O)C1CCCN1C(=O)Nc1cccc(F)c1 (stereo not given)
  21%, -10%
COC(=O)c1cc(OC)c(OC)cc1NC(=S)N1CCN(c2ccccn2)CC1
  4%, -3%
CCOC(=O)CCN1C(=O)c2ccccc2Sc2ncccc21
  -2%, -14%
O=c1[nH]ncc2c3ccccc3n(Cc3ccc(F)cc3)c12
  -26%, nt
CCOc1ccc(-c2cn(S(=O)(=O)c3cccc4nsnc34)nc2N)cc1
  ?, nt

Order of results – VACV Venus inh, Vaccinia mCherry
CCCS(=O)(=O)N1CC(=O)N(c2ccccc2F)C(C)(C(=O)NC2CCCCCC2)C1 (stereo not given)
  2%, -4%
O=C(Nc1cccc(Cl)c1)c1ccc2c(c1)OCCO2
  -9%, -14%
C/C(N)=C(/C#N)C(=O)CSc1nc2cc(Cl)ccc2c(=O)n1-c1ccc(C)cc1
  -12%, i
O=C(N/N=C/c1cccnc1)C(=O)N1CCCCCC1
  -9%, -17%
CCCS(=O)(=O)c1c(S(=O)(=O)CCC)c2cc(-c3ccncc3)ccn2c1C(=O)OC
  -12%, -13%
CC(=O)N(C)c1ccc(C(O)(C(F)(F)F)C(F)(F)F)cc1
  -13%, 0%
Cc1ccc(NS(=O)(=O)c2ccc3[nH]c(=O)ccc3c2)cc1N(C)C
  -9%, -10%
Cc1nc2ccc(NC(=O)c3cc(S(=O)(=O)N(C)c4ccccc4)ccc3Cl)cc2s1
  -14%, -25%
COc1ccccc1N1N=C(c2cccs2)CC1c1ccccc1 (stereo not given)
  0%, -16%
O=C(C1CCCO1)N1CCN(C(=S)Nc2ccccc2)CC1 (stereo not given)
  -4%, -9%
CCOc1ccc(NC(=O)CN(C)C(=O)c2ccc(N3CCCCCC3)c([N+](=O)[O-])c2)cc1OCC
  -22%, -6%
O=c1[nH]c2ccccc2n1C1CCN(C(c2cccs2)c2nnnn2Cc2ccccc2)CC1 (stereo not given)
  ?, -7%
O=C(O)C1(c2ccccc2)CCN(S(=O)(=O)c2ccccc2)CC1
  5%, -3%
c1ccc(-n2ncc3c(N4CCN(c5ccccn5)CC4)nc(N4CCCCCC4)nc32)cc1
  -4%, -13%
CC(C)=CCN1CCN(Cc2ccc3nsnc3c2)CC1CCO (stereo not given)
  -5%, i

Order of results – VACV Venus inh, Vaccinia mCherry
OCCNc1nc(N2CCCC2)nc(N2CCCC2)n1
  -11%, nt
CC1(CO)CCCC1NCCNC1CCCC1(C)CO (stereo not given)
  -1%, -2%
CN(C(=O)COc1ccc(Cl)cc1Br)C1CCCCC1
  -14%, -14%
CC(C)(C)NC(=O)COC(=O)c1ccc2c(c1)C(=O)N(Cc1ccco1)C2=O
  5%, -4%
Cc1noc(C)c1C(=O)Nc1ccc(S(=O)(=O)N2CCCCC2)cc1
  -21%, -20%
Cc1occc1-c1nnc(SCC(=O)NCc2cccs2)n1-c1ccc(F)cc1
  ?, ?
COc1ccc([C@H]2CC(=O)C=C(c3cc(OC)ccc3OC)C2)cc1
  ?, -13%
Cc1ccc2nc(C3CCCN(C(=S)Nc4ccccc4C)C3)[nH]c2c1 (stereo not given)
  ?, -20%
Cc1ccc(CNC(=O)c2cncc(Br)c2)cc1
  -9%, -12%
COC(=O)c1c(N2C(=O)[C@H]3[C@@H](C2=O)[C@]2(C(=O)Nc4c2ccc(C)c4C)N2CCC[C@@H]32)sc(C)c1C
  1%, -11%
O=c1c(NCCc2ccccc2)c(-c2ccccc2)c1=O
  -13%, i
CS(=O)(=O)N(CC(=O)N1CCc2ccccc2C1)c1ccc(Br)cc1
  2%, ?
CCCNS(=O)(=O)c1ccc(OCC(=O)N2CCCC2)cc1
  -12%, -3%
COc1ccc(C2=Nc3ccccc3N(C(=O)c3cccnc3)C2C(=O)NC2CCCC2)cc1 (stereo not given)
  -7%, ?
O=C(Nc1cccnc1Cl)c1cc(-c2ccc(F)cc2)on1
  0%, i

Order of results – VACV Venus inh, Vaccinia mCherry
CC(C)C(=O)Nc1nnc(-c2ccccc2)o1
  -7%, -6%
COC(=O)NCCc1cc(OC)c(OC)cc1S(=O)(=O)N1CC(=O)Nc2ccccc21
  0%, 0%
COc1cc(C(=O)NC(C)CCn2cccn2)ccc1OC1CCN(C(C)=O)CC1 (stereo not given)
  -3%, -14%
CCN(CC)c1ccc(N=Cc2c(O)n(Cc3ccccc3)c(=O)[nH]c2=O)cc1
  ?, ?
COCCN1C(=O)N(c2cccc(OC)c2)C(=O)C1CC(=O)Nc1ccccc1 (stereo not given)
  -2%, 0%
NC(=O)c1ccccc1NC(=O)c1ccc2ccccc2c1
  -18%, -29%
COc1ccc(-c2cc(C)nc3c(-c4ccccc4)cnn23)cc1
  -11%, -13%
CC(=O)c1ccc(OCc2cc(C(=O)N(C)Cc3ccon3)no2)cc1
  -15%, i
CCCCOC(=O)Cn1c(=O)n(CC(=O)OCCCC)c2ccccc21
  -1%, nt
CCOC(=O)CSc1nc(-c2ccncc2)ccc1C#N
  -18%, -10%
COC(=O)c1ccc(OCC(=O)c2ccccc2)cc1
  -18%, -1%
COc1ccc(Nc2nc(NCCCN3CCOCC3)nc(N)c2[N+](=O)[O-])cc1
  ?, -15%
Cc1ccc(OCC(=O)N(Cc2ccccc2)C2CCS(=O)(=O)C2)c([N+](=O)[O-])n1 (stereo not given)
  -8%, -13%
CCN(CC)CCN(C(=O)c1ccc2c(c1)CCCC2)c1nc2c(OC)cccc2s1
  -23%, -4%
COc1cccc(C(C)(O)c2nc(-c3ccccc3)cs2)c1 (stereo not given)
  -3%, 27%

Order of results – VACV Venus inh, Vaccinia mCherry
COc1ccc2sc(N(Cc3cccnc3)C(=O)C3CCCCC3)nc2c1
  -24%, -28%
CCOC(=O)c1sc(NCc2ccco2)c(-c2nc3ccccc3s2)c1N
  -14%, nt
CCc1nc(SCC(=O)c2ccccc2)c2ccccc2n1
  -23%, i
CCCCOc1cc(C(=O)NCCN(CC)CC)c2ccccc2n1
  -9%&-12%&-7%, 0%&-7%&-8%
Cc1cc(-c2cccc([N+](=O)[O-])c2)nc2ccccc12
  -2%, -17%
CCOC(=O)C[C@@H]1OC[C@H](CO)N1S(=O)(=O)c1ccc(C)cc1
  -15%, -8%
CN(C)c1ccc(C(=O)NCc2ccc3c(c2)OCO3)cc1
  -16%, -13%
Cc1sc2cc(-c3cccc([N+](=O)[O-])c3)c(-c3cccc([N+](=O)[O-])c3)c[n+]2c1C
  2%, -1%
Cc1ccn(CCC(=O)N2CCOc3ccc(C(O)C4CCCCC4)cc3C2)n1 (stereo not given)
  -5%, -13%
Cn1cccc1Cc1nnc(SCC(=O)Nc2ccc(F)cc2)n1CCc1ccccc1
  -8%, -10%
O=C1c2ccccc2C(=O)C1(c1ccccc1)N1CCN(c2cccc(Cl)c2)CC1
  -6%, -8%
CCn1c(=O)c2cc(C(=O)NCCCN3CCN(C)CC3)sc2c2ccccc21
  -15%, -15%
CCCOc1ccc(C(=O)Nc2cc3nn(-c4ccc(CC)cc4)nc3cc2C)cc1
  -20%, -23%
COc1ccccc1NC(=O)C1CCN(C(=O)C2CC(=O)N(c3ccc(C)cc3)C2)CC1 (stereo not given)
  -6%, 2%
O=C1CN(C(=O)c2ccccn2)c2ccccc2N1
  -11%, -1%

Order of results – VACV Venus inh, Vaccinia mCherry
COCC(C)n1c(C)cc(C(=O)CN2C(=O)NC3(CCCCC3C)C2=O)c1C (stereo not given)
  -11%, -18%
O=C(COC(=O)c1ccc(Cl)nc1)NCCC1=CCCCC1
  -1%, -7%
CN(CC(=O)NCc1ccccn1)S(=O)(=O)c1cc(Cl)ccc1Cl
  -16%, -25%
Clc1ccc(SCCn2cncn2)cc1
  -6%, -12%
Cc1oc2ncn(CC(C)C)c(=O)c2c1C(=O)NCCc1ccc(Cl)cc1
  0%, -16%
CS(=O)(=O)c1ccc(Oc2ccc(-c3nnco3)cc2)c([N+](=O)[O-])c1
  -12%, -30%
COc1ccc(CCNC(=O)CSc2ccc(-c3cccs3)nn2)cc1OC
  -12%, -4%
Cc1ccc(-c2cccc(C3CC=CC4C3C(=O)N(Cc3ccccc3)C4c3ccc(C(F)(F)F)cc3)c2)cc1 (stereo not given)
  -22%, ?
Cc1ccccc1CN(C)C[C@@H]1OCc2cnnn2CCCC(=O)N([C@@H](C)CO)C[C@H]1C
  -9%, i
O=C(C1CCN(S(=O)(=O)c2ccc(Cl)s2)CC1)N1CCN(c2ccccc2)CC1
  -16%, -24%
Cc1ccc(OCc2nc(-c3ccccn3)n[nH]2)cc1
  ?, nt
Cc1cccc(Nc2nnc(SC3CCOC3=O)s2)c1C (stereo not given)
  -5%, i
CCCN1CCN(C(=S)Nc2ccc(S(N)(=O)=O)cc2)CC1
  0%, -21%
Cc1ncc(CO)c2c1Oc1nc(-c3ccc(F)cc3)nc(SCC(=O)N3CCCCC3)c1C2
  -14%, -11%
O=C(NCC1CCCN1S(=O)(=O)c1cccs1)C(=O)Nc1ccc(F)cc1F (stereo not given)
  -21%, -19%

Quoted at random: five records from the list
Order of results – VACV Venus inh, Vaccinia mCherry
O=C(NCC1CCCN1S(=O)(=O)c1cccs1)C(=O)Nc1ccc(F)cc1F (stereo not given)
  -21%, -19%
Cc1ccc(CNC(=O)CSc2nc(C)cc(C)c2C#N)cc1
  -14%, -20%
CCOc1ccc(-c2cn(S(=O)(=O)c3cccc4nsnc34)nc2N)cc1
  ?, nt
CS(=O)(=O)N(CC(=O)N1CCc2ccccc2C1)c1ccc(Br)cc1
  2%, ?
O=C(C1CCN(S(=O)(=O)c2ccc(Cl)s2)CC1)N1CCN(c2ccccc2)CC1
  -16%, -24%

(continued)
Order of results – VACV Venus inh, Vaccinia mCherry
CCOC(=O)c1ccc(NC(=O)C(CC)Sc2nc3ccncc3[nH]2)cc1 (stereo not given)
  -11%, i
CC(C)Cn1c(CN2CCCCC2C)nc2c1c(=O)n(C)c(=O)n2C (stereo not given)
  6%, 4%
CC(c1ccccn1)C(C)(O)C(C)c1ccccn1 (stereo not given)
  -9%, i
Cc1ccc(N(O)C(C)(C)C)cc1
  -1%, i
O=S(=O)(Nc1cccc(-c2cn3cccnc3n2)c1)c1ccc(F)cc1
  -16%, -14%
COc1ccc(CCNC(=O)CN(c2ccc(OC)c(OC)c2)S(C)(=O)=O)cc1OC
  -12%, -23%

Source: PubChem BioAssay (National Center for Advancing Translational Sciences (NCATS))
